KAT2A inh = qHTS Assay for Inhibitors of GCN5L2; Histone acetyltransferase KAT2A (Homo sapiens), Q92830; GCN5L2 HAT assay, ThioGlo1 CoA-SH fluorescence; Potency, µM (titrated, usually from 58.9 µM), inactives show at the highest dose activity change, negative = inhibition, actives largely listed as inhibitors; 390,000 tested, 0.21% active; AID 504327, 2011; active means well fitted inhibition curve with a large enough effect; inconclusive means small, poorly fitted or top-dose-only effect, or another doubt; inactive means no such curve, though single readings can be large or run the other way
Target sequence (Q92830 whole entry, looked up): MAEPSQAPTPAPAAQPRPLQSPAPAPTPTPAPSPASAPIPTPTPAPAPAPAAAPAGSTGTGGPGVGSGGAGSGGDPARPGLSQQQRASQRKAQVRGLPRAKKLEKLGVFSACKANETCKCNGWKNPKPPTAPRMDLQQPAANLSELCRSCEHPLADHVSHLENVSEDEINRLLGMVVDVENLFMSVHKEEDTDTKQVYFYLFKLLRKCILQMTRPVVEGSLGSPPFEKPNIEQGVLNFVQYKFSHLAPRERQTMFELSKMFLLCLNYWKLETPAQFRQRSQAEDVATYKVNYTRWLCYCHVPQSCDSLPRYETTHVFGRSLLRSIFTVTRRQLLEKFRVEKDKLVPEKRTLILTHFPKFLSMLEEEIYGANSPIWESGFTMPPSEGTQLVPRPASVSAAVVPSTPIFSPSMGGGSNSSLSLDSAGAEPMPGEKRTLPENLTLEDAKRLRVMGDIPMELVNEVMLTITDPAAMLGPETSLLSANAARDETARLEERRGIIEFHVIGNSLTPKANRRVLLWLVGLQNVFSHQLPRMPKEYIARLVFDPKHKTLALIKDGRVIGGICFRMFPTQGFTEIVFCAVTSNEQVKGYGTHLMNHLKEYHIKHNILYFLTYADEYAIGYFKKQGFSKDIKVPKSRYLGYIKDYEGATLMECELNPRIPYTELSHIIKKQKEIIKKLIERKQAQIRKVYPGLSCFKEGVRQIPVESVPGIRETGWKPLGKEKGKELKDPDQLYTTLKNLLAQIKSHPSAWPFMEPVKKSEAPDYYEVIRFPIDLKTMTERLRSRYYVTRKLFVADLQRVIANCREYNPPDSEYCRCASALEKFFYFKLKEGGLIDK
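GCN5L2 (20nM final) in 50mM HEPES, 0.1mM EDTA pH 7.5, 0.01% Tween-20 was preincubated 15 min at room temperature with compound, then given ThioGlo1 (50uM), H3(1-25) peptide (75uM) and acetyl-CoA (70uM); CoA-thiol fluorescence (Ex340/Em540) was read at 0 and 20 min.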
* marks the source's active call; other numbers are inactive results; ? = inconclusive; [ ] = dose if it differs, or a comment. On the % scale 0 is the no-effect control and ±100 the full control effect; potency means the concentration at half of the fitted maximal effect.

COc1cc(-c2ccno2)ccc1S(=O)(=O)N1CCN(c2ccccc2)CC1
  KAT2A inh = -13%

COc1cccc(-n2c(=O)c3cc(OC)c(OC)cc3n(CC(=O)Nc3cc(C)[nH]n3)c2=O)c1
  KAT2A inh = -1%

CC(C)CC(NC(=O)OCC1c2ccccc2-c2ccccc21)C(=O)O (stereo unspecified)
  KAT2A inh = 3%

CC(C)OCCCn1c(=O)c2ccccc2n2c(CCC(=O)NCc3ccccn3)nnc12
  KAT2A inh = -17%

CC1CCCN(S(=O)(=O)c2ccc(N(C(=O)c3cnccn3)C(C(=O)NC3CCCCC3)c3cccs3)cc2)C1 (stereo unspecified)
  KAT2A inh = -1%

Cc1nn(C2CCS(=O)(=O)C2)c(C)c1CN(C)C(=O)c1cccc(Cl)c1 (stereo unspecified)
  KAT2A inh = -6%

COc1ccc(-n2c(=S)[nH]c3c(oc4ccccc43)c2=O)cc1
  KAT2A inh = -4%

CCOCCCNC(=O)C(c1ccc(C)cc1)N(Cc1ccc2c(c1)OCO2)C(=O)c1ccccn1 (stereo unspecified)
  KAT2A inh = -1%

Cc1ccc(-c2c(C)sc3nc(CN4CCN(CC(=O)NC5CC5)CC4)[nH]c(=O)c23)cc1
  KAT2A inh = 3%

O=C(COC(=O)CCN1C(=O)c2cccc([N+](=O)[O-])c2C1=O)NCc1ccccc1
  KAT2A inh = -16%

CC1=NN(C(=O)CCc2ccccc2)C(c2ccccc2)C1 (stereo unspecified)
  KAT2A inh = 18%

CC(C)(C)OC(=O)N1CCC(c2c(C(=O)NCc3ccc(F)cc3)cnn2-c2ccc(F)cc2)CC1
  KAT2A inh = 0%

Cc1nn2c(N3CCN(c4ccccn4)CC3)cc(C(C)C)nc2c1-c1ccccc1
  KAT2A inh = -10%

Cc1cccc(OCC(=O)Nc2ccc(OCc3cc(=O)n4cc(C)ccc4n3)cc2)c1
  KAT2A inh = -11%

O=C(CNC(=S)N(Cc1ccccc1)Cc1ccccc1F)NCc1ccccc1
  KAT2A inh = -7%

CN(C)/C(CN1CCCCC1)=C1\N=C(c2ccccc2)OC1=O
  KAT2A inh = -19%

Cc1onc(-c2ccccc2)c1-c1ccnc(N)n1
  KAT2A inh = -3%

COc1ccccc1S(=O)(=O)NCc1ccc(C(=O)NC(C)c2ccccn2)cc1 (stereo unspecified)
  KAT2A inh = -1%

O=C(CN1C(=O)CC(c2ccccc2)=Nc2ccccc21)NC1CCCCC1
  KAT2A inh = 1%

COc1cc(NC(=O)COc2ccc3c(C)cc(=O)oc3c2C)cc(OC)c1OC
  KAT2A inh = -7%

COC(=O)COc1cccc(NC(=O)c2ccccc2)c1
  KAT2A inh = -1%

COc1cccc(C2/C(=C(\O)c3ccc4c(c3)OCCO4)C(=O)C(=O)N2CC2CCCO2)c1 (stereo unspecified)
  KAT2A inh = -3%

Cc1cc(NC(=NC2CC2)c2ccccc2F)n(-c2ccccc2)n1
  KAT2A inh = -1%

O=C(Nc1ccccc1)N1CCCCC1c1cccnc1 (stereo unspecified)
  KAT2A inh = -11%

O=C(Nc1ccccc1N1CCCCC1)c1cccc([N+](=O)[O-])c1
  KAT2A inh = -7%

CC(C)CCOP(=O)(c1ccc(N(C)C)cc1)C(Nc1ccccc1)c1ccc(N(C)C)cc1 (stereo unspecified)
  KAT2A inh = 1%

O=C1C2C3C=CC(C3)C2C(=O)N1CNc1ccccc1 (stereo unspecified)
  KAT2A inh = 0%

CCc1cc(C(=O)c2ccc(C)cc2)c(NC(=O)CCl)s1
  KAT2A inh = -12%

COc1ccc(NC(=O)CN(C)S(=O)(=O)c2cccc3nsnc23)cc1OC
  KAT2A inh = -4%

O=C1/C(=C/c2cccs2)Sc2ccccc21
  KAT2A inh = 5%

CC(C)(C)C(=O)/C=c1\[nH]c(=O)/c(=C\c2ccccc2F)s1
  KAT2A inh = -4%

COc1cc(C(=O)Nc2ccc3nc(SCc4ccc(C)cc4)sc3c2)cc(OC)c1OC
  KAT2A inh = -9%

Cc1cc(Cn2nc(-c3ccccc3)cc2C(=O)NCc2cccs2)on1
  KAT2A inh = -6%

O=C1C(c2ccc(F)cc2)N(CCc2ccc(Cl)cc2)C(=O)CN1C1CCCCCC1 (stereo unspecified)
  KAT2A inh = 0%

CCOC(=O)c1cc2c(=O)n3ccccc3nc2n(CCOC)c1=NC(=O)C(C)(C)C
  KAT2A inh = -9%

O=C(NC1CCCCC1)c1ccc(CS(=O)Cc2ccc(Cl)cc2)o1 (stereo unspecified)
  KAT2A inh = 1%

CCOc1ccc(NC(=O)CSc2nc3[nH]ncc3c(=O)n2-c2ccccc2OC)cc1
  KAT2A inh = 0%

CC1CN(C(=O)C2CCCC2)C(C)CN1C(=O)C1CCCC1 (stereo unspecified)
  KAT2A inh = 2%

COc1ccc(C=NCC2COc3ccccc3O2)cc1OC (stereo unspecified)
  KAT2A inh = -10%[0.501 µM]

COc1c(O)cccc1O
  KAT2A inh = -5%

CC(=O)O/N=C(/C)c1ncc(C(F)(F)F)cc1N1CCOCC1
  KAT2A inh = 1%

FC(F)Sc1ccc(NC(=S)N2CCN(c3ccccn3)CC2)cc1
  KAT2A inh = -2%

C/C(CCc1ccccc1)=N/NC(=O)C(=O)NCc1ccccc1
  KAT2A inh = 0%

CCOc1ccccc1N1CCN(Cc2cn[nH]c2-c2ccc(F)cc2)CC1
  KAT2A inh = -2%

COc1ccccc1N1CCN(/N=C\c2ccc(C)o2)CC1
  KAT2A inh = -15%

CN(CC(=O)Nc1cccc(F)c1)C(=O)C1=COCCO1
  KAT2A inh = 1%

COc1ccc(S(=O)(=O)N(CCc2ccccc2)CC(=O)NCc2ccccc2)cc1
  KAT2A inh = -3%

Cc1ccc(C(=O)Nc2ccc(N3CCOCC3)nc2)cc1
  KAT2A inh = -2%

CC(C)(/C=N/O)/[N+]([O-])=C/c1ccccc1C(F)(F)F
  KAT2A inh = 5%

Cc1ccc(NC(=O)C2CCN(c3nc4ccccc4nc3C(F)(F)F)CC2)cc1F
  KAT2A inh = -1%

CCN=C(NCC)SC1CC(=O)N(c2ccc(OC)cc2)C1=O (stereo unspecified)
  KAT2A inh = 2%

COc1cc(/C=C2\OC(=O)c3c(OC)cccc32)ccc1O
  KAT2A inh = ?

NS(=O)(=O)c1ccc(CCNC(=O)c2ccc(C(=O)c3ccccc3)cc2)cc1
  KAT2A inh = -3%

CC1Cc2nc(SCC(=O)OCc3ccccc3)n(C)c(=O)c2S1 (stereo unspecified)
  KAT2A inh = -31%

Cc1ccc(C(=O)COC(=O)CCC(=O)Nc2cccc(Cl)c2)cc1[N+](=O)[O-]
  KAT2A inh = ?

Cc1ccc(OCCCN2C(=O)C(=O)c3cc(C)ccc32)cc1
  KAT2A inh = -1%

O=C(CCCN1C(=O)CSc2ncccc21)N1CCN(c2cccc(C(F)(F)F)c2)CC1
  KAT2A inh = -15%

O=C(N1CCCCC1)C1(c2ccccc2)CCCCC1
  KAT2A inh = 0%

COc1cc(CN2CCN(C(C)C)C(CCO)C2)ccc1OCc1ccccc1 (stereo unspecified)
  KAT2A inh = -3%

Cc1cc(Cl)c(OCCCCN2CCOCC2)c(Br)c1
  KAT2A inh = -2%

O=C(Nc1cc([N+](=O)[O-])ccc1N1CCCC1)c1ccco1
  KAT2A inh = -17%

Cc1ccnc(NC(=O)c2ccc(COc3ccc(Cl)cc3)o2)c1
  KAT2A inh = -4%

CCC1=C(OC(=O)N(CC)CC)N2C(=O)OC(=NCCOC)[C@]2(Cc2ccccc2)[C@H]2C1=CC[C@H]1C(=O)N(C)C(=O)[C@H]12
  KAT2A inh = -11%

COc1ccc(CNC(=O)CCc2c(C)nn(-c3ccc(N4CCCCC4)nn3)c2C)cc1
  KAT2A inh = -4%

O=C(CCC(=O)OCC(=O)c1cccc([N+](=O)[O-])c1)Nc1ccccc1Cl
  KAT2A inh = -2%

COC(=O)C1=CN(C(C)C)C=C(C(=O)OC)C1c1cc(Br)c(OC)c(OC)c1
  KAT2A inh = -6%

CC(=O)Nc1cccc(NC(=O)CSc2nc(C)c(C)c(C)c2C#N)c1
  KAT2A inh = -7%

CCN1CCN(C(=O)CCNC(=O)Cn2cnc3ccccc3c2=O)CC1
  KAT2A inh = 0%

COc1ccc2c(c1)[nH]c(=O)c1sc3ccccc3c12
  KAT2A inh = -29%

O=C(N[C@@H]1C/C=C\C[C@H](CC(=O)N(CCO)Cc2ccccc2)C(=O)N[C@@H](Cc2c[nH]c3ccccc23)COC1=O)OCC1c2ccccc2-c2ccccc21
  KAT2A inh = -13%

CCCCN(C(=O)CSc1nncn1-c1ccccc1OC)c1c(N)n(Cc2ccccc2)c(=O)[nH]c1=O
  KAT2A inh = -11%

COC(=O)[C@]1(C)N[C@H](CN(C)C(=O)COc2ccccc2)[C@@H]2C(=O)N(C)C(=O)[C@@H]21
  KAT2A inh = -5%

Cc1ccc(-c2csc3ncn(CC(N)=O)c(=O)c23)cc1C
  KAT2A inh = 1%

CCC(C)NC(=O)CCCc1ccccc1 (stereo unspecified)
  KAT2A inh = -20%

O=C(CSc1ccc(-c2ccccc2)nn1)N1CCCc2ccccc21
  KAT2A inh = -5%

COc1ccccc1-c1ccc(SCC(=O)NCc2ccc3c(c2)OCO3)nn1
  KAT2A inh = -8%

C#CCOCCOCCOCCNc1nc(N2CCOCC2)nc(N2CCN(C(=O)[C@H](CC(N)=O)n3cc([C@@H](N)C(C)C)nn3)CC2)n1
  KAT2A inh = -2%

Cc1c(Cl)cccc1N(Cc1ccc(C(=O)O)cc1)S(=O)(=O)c1ccccc1
  KAT2A inh = 19%

O=C1[C@@H]2[C@@H]3C[C@@H]([C@H]4ON=C(c5ccc(Cl)cc5)[C@@H]34)[C@@H]2C(=O)N1c1ccc2c(c1)OCO2
  KAT2A inh = 1%

CCOC(=O)C1CCCN(c2c(N3CCOCC3)c(=O)c2=O)C1 (stereo unspecified)
  KAT2A inh = -6%

CN(NS(C)(=O)=O)c1c(C#N)c(C(F)(F)F)nn1C
  KAT2A inh = -21%

COc1ccc2nc(C)cc(SCC(=O)N/N=C/c3c(OC)ccc4ccccc34)c2c1
  KAT2A inh = -1%

COc1cc(C2CC(=O)Nc3ccc4ccccc4c32)ccc1OC(=O)C(C)C (stereo unspecified)
  KAT2A inh = -2%

Cc1cccc(NC(=O)c2nc[nH]c2C(=O)N[C@@H](Cc2ccccc2)C(=O)OCc2ccccc2)c1
  KAT2A inh = -15%

CC(=O)Nc1cccc(C(=O)OCC(=O)c2ccccc2Cl)c1
  KAT2A inh = -8%

Cn1c(=O)[nH]c(=O)c2c1nc(N1CCN(CCO)CC1)n2CCSc1nc2ccccc2s1
  KAT2A inh = -17%

COc1ccc(/C(N)=C/C(=O)C(C)(C)C)cc1
  KAT2A inh = -3%

CC1(C)CC(=O)c2cc(C(=O)O)c(=O)n(-c3ccccc3)c2C1
  KAT2A inh = -12%

CCOc1ccc(NC(=O)N2CCCC2C(=O)NCc2ccco2)cc1 (stereo unspecified)
  KAT2A inh = -1%

Cc1nnc(C)n1/N=C/c1ccc(-c2ccccc2Cl)o1
  KAT2A inh = -10%

COc1ccc(/C=C/C(=O)OCC(=O)NC(C)CCc2ccccc2)cc1 (stereo unspecified)
  KAT2A inh = -3%

CCOC(=O)c1cc2c(n(-c3ccccc3)c1=O)CC(C)(C)CC2=O
  KAT2A inh = -4%

Cc1ccc(CSc2nnc(-c3ccc(NS(=O)(=O)c4ccccc4)cc3)o2)cc1
  KAT2A inh = -19%

COc1ccc(-c2nc(C#N)c(N3CCOCC3)o2)cc1OC
  KAT2A inh = -9%

CCC(=O)NCCc1nc2cc(NC(=O)COc3ccccc3)ccc2n1C
  KAT2A inh = 4%

CCOc1ccc(CNC(=O)CCCOc2cc(=O)n(C)c3ccccc23)cc1
  KAT2A inh = -3%

CCN1C=C(Cc2cccs2)C2=C(C1)C(c1cccs1)C(C#N)=C(N)O2 (stereo unspecified)
  KAT2A inh = -7%

CCN(C(=O)C1CCCN(c2ncnc3onc(-c4ccc(F)cc4)c23)C1)c1ccccc1 (stereo unspecified)
  KAT2A inh = -3%

O=C(COC(=O)CCc1nc2ccccc2c(=O)[nH]1)Nc1ccc2c(c1)OCO2
  KAT2A inh = -14%

O=c1[nH]c(CN2CCOCC2)nc2ccccc12
  KAT2A inh = -14%

CC(C(=O)NCc1ccc(Cl)cc1)n1cccc1C(=O)c1ccccc1 (stereo unspecified)
  KAT2A inh = -6%

CCCCNC(=O)CSc1nc2ccsc2c(=O)n1C1CCN(C(=O)OCC)CC1
  KAT2A inh = 3%

O=C(CC(O)(C(F)(F)F)C(F)(F)F)Nc1ccc(Cl)c(Cl)c1
  KAT2A inh = -10%

O=C(NC1CCS(=O)(=O)C1)c1cccc(S(=O)(=O)N2CCCCCC2)c1 (stereo unspecified)
  KAT2A inh = 2%

O=C(c1cc2ccccc2oc1=O)N(Cc1ccccc1)CC1CCCO1 (stereo unspecified)
  KAT2A inh = 6%

Cn1cc2cc(NC(N)=S)ccc2n1
  KAT2A inh = -2%

Nc1nc(CN2CCN(c3ccccc3)CC2)nc(N2CCCc3ccccc32)n1
  KAT2A inh = -6%

Cc1ccc(CNC(=O)C2CCC(=O)N(C3CCCC3)C2)c(F)c1F (stereo unspecified)
  KAT2A inh = -9%

CC(=O)c1c(C)oc2ccc(O)c(CN3CCOCC3)c12
  KAT2A inh = -13%

CCOC(=O)N1CCN(C(=O)CN(C2CCCCC2)S(C)(=O)=O)CC1
  KAT2A inh = -1%

CC(=O)c1ccc(NC(=O)CSc2ccc(-c3ccc(-n4cccn4)cc3)nn2)cc1
  KAT2A inh = -10%

CC(C)(C)C(=O)NCC(c1ccc2c(c1)OCO2)N1CCOCC1 (stereo unspecified)
  KAT2A inh = 3%

O=C(NC1CCCCC1)c1cc([N+](=O)[O-])ccc1N1CCCC1
  KAT2A inh = -6%

O=C(C1=C[C@@H](c2ccc(C(F)(F)F)cc2)C[C@@H](OCCCCO)O1)N1CCN(Cc2ccccc2)CC1
  KAT2A inh = 0%

CC(=O)NCC(=O)N[C@H](CCC(=O)O)C(=O)O
  KAT2A inh = -23%

Not all compounds are listed, and most or all hits are left out here.
